# Screening data (PubChem BioAssay)
# HTT prom inh = inhibitors of huntingtin promoter activity; Potency, µM (series often up to 57.5 µM), inactives show at the highest dose activity change, negative = inhibition, actives largely listed as inhibitors; HEK293 HTT promoter firefly luciferase reporter (activity 0% = vehicle and -100% = no light), 24 h; hit rate 0.93% among 48,000; AID 1508623; active = well fitted inhibition curve with a large enough effect; inconclusive = small, poorly fitted or top-dose-only effect; inactive = no such curve, though single readings can be large or run the other way; also: nearly all actives have a fitted effect of over 50% in size
#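 HEK293 cells carrying firefly luciferase reporters were seeded at 2,500 per well in Opti-MEM and cultured for 24 h. They were then treated with compounds at up to 57.5 uM final for 24 h at 37 degrees C before Dual-Glo luminescence readout.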
# PMP22 txn prim = PMP22 gene transcription modulation | S16 Pmp22-F2sN Schwann cells (luciferase reporters placed in the Pmp22 gene), FLuc/NLuc coincidence luminescence, 24 h | Potency, µM (titrated, usually from 57.5 µM), for inactives: at the highest dose activity change, negative = inhibition, actives largely listed as inhibitors | hit rate 2% among 43,000; active = clear falling dose curves in both reporters; inconclusive = both reporters move, but less clearly or upward; inactive = either reporter flat; the % is the NLuc reporter signal; also: % is scaled to controls: 0 for no effect and ±100 for the full control effect; some results filed as inactive show a strong effect at the top dose
#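 Reporter cells (S16 Pmp22-F2sN, 500–1,000 per well) exposed to compounds for 24 h, 37C, 5% CO2; lysis with FLuc read after 10 min, then Stop&Glo and NLuc read after 10 min.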
# * marks the source's active call; other numbers are inactive results; ? = inconclusive; / = not tested or not shown; [ ] = remark or other dose. Potency is read from the fitted curve at half-maximal effect.
SMILES,HTT prom inh,PMP22 txn prim
Cc1cccn2c(=O)c3cc(C(=O)NCC(C)C)sc3nc12,18%,-11%
COc1ccccc1CN1COc2ccc3c(C)cc(=O)oc3c2C1,-21%,-36%
CCOC(=O)c1scc(-c2ccccc2)c1S(=O)(=O)N1CCN(c2ccc(Cl)cc2)CC1,-23%,-1%
C[C@@H](O)[C@H]1C(=O)N2C(C(=O)O)=C([C@H]3CCCO3)S[C@H]12,-2%,/
CC(NC(=O)c1ccc(F)cc1)c1nc2ccccc2[nH]1 (centres undefined),18%,30%
Cc1ccc2oc(=O)c(S(=O)(=O)c3ccc(F)cc3)cc2c1,-11%,3%
OC(c1ccccc1)c1nc2ccccc2n1Cc1c(F)cccc1Cl (centres undefined),-7%,-27%
Cc1cccc(CSc2nc3c(sc4ccccc43)c(=O)n2CCC(=O)NC(C)C)c1,21%,-28%
CCOc1ccc(NC(=O)Cn2cc(C(=O)c3ccc(F)cc3)c(=O)c3cc4c(cc32)OCO4)cc1,-2%,?
O=C(c1ccc(CSc2nc3ccncc3n2Cc2cccc(F)c2)cc1)N1CCCCCC1,?,-30%
COc1cc(OC)c(NC(=O)Cn2c(=O)c(C(F)(F)F)nc3ccccc32)cc1Cl,-26%,53%
COc1ccccc1NC(=O)Cn1c(SCC(=O)N(C)c2ccccc2)nc2ccccc21,-23%,?
Cc1nc2c(c(C)c1CCC(=O)NCc1ccccc1)c(=O)n(C)c(=O)n2C,2%,?
COc1ccc(NC(=O)CCCN2C(=O)CCn3nc(-c4cn(C)c5ccccc45)cc32)cc1,-23%,-31%
CCCC(=O)N1CCN(c2nc3ccc(F)cc3s2)CC1,?,-13%
Cc1ccc2oc(=O)c(-c3nc(-c4cccs4)no3)cc2c1,31%,-25%
CC1(C)S[C@H]2[C@H](NC(=O)[C@@H](N)c3ccc(O)cc3)C(=O)N2[C@@H]1C(=O)O,2%,/
CCc1ccc(Nc2nc3ccccc3nc2NS(=O)(=O)c2ccccc2)cc1,?,-26%
CCOc1ccc(CCNC(=O)c2ccc3c(Cl)c4c(nc3c2)CCCC4)cc1,-17%,?
Cc1cc(Cl)ccc1OCc1cc(=O)n2c3c(sc2n1)CCCC3,-11%,-3%
CCc1ccc(OCCCn2c(-c3ccc(Cl)cc3)nc3ccccc3c2=O)cc1,-21%,5%
Cc1ccc(CN2C(=O)C3(c4ccccc42)N(c2cccc(C(F)(F)F)c2)C(=O)CS3(=O)=O)cc1 (centres undefined),?,-62%
COc1cc2nc(NCC(C)c3ccccc3)n3nc(-c4ccccc4)nc3c2cc1OC (centres undefined),3%,-22%
CCOC(=O)c1sc2cccc(F)c2c1S(=O)(=O)N1CCN(c2cccc(Cl)c2)CC1,-8%,-18%
COc1ccc(NC(=O)CC2Nc3ccccc3NC2=O)cc1 (centres undefined),12%,-19%
CCOc1ccc(C(=O)Nc2ccc3oc(-c4ccc(C)cc4C)nc3c2)cc1Br,10%,?
Cc1c(C)n(C)c2ccc(C(=O)NCc3cccc(F)c3)cc12,3%,1%
Cn1nnnc1SCCCNCc1ccc(-c2cccc(Cl)c2)o1,-3%,4%
CCOC(=O)N1CCC(NC(=O)c2ccc3c(c2)N(Cc2ccc(Cl)cc2)C(=O)c2ccccc2S3=O)CC1 (centres undefined),?,?
CCN1CCN(c2cc(C)c3cc(NC(=O)c4ccccc4F)ccc3n2)CC1,22%,34%
CCC(=O)N1CCc2cc(S(=O)(=O)NCCC(=O)Nc3ccc(N(CC)CC)cc3C)ccc21,?,7%
Cn1c(NCc2cccc(Cl)c2)nc2ccccc21,-2%,-38%
Cc1ccc(C)c(CN2C(=O)c3ccccc3S(=O)c3ccc(C(=O)N4CCCCC4)cc32)c1 (centres undefined),-5%,-42%
CCOc1ccc(C(=O)Nc2nnc(SCc3cc(=O)c4cc(C)ccc4[nH]3)s2)cc1,16%,-30%
COc1ccc(C2CC(c3ccccc3)=NN2c2ccc(S(N)(=O)=O)cc2)cc1 (centres undefined),-25%,/
CCOC(=O)c1ccc2c(c1)N(Cc1ccccc1)C(=O)c1ccccc1S2,?,?

# Compounds above with a CF3 group (two):
SMILES,HTT prom inh,PMP22 txn prim
COc1cc(OC)c(NC(=O)Cn2c(=O)c(C(F)(F)F)nc3ccccc32)cc1Cl,-26%,53%
Cc1ccc(CN2C(=O)C3(c4ccccc42)N(c2cccc(C(F)(F)F)c2)C(=O)CS3(=O)=O)cc1 (centres undefined),?,-62%

# Further results follow.
SMILES,HTT prom inh,PMP22 txn prim
Fc1ccc(Cl)cc1-c1nc(Nc2ccncc2)c2nccnc2n1,0%,/
COc1cccc(Nc2cc(-c3ccccc3)nc(C)n2)c1,24%,-4%
CC(=O)c1cccc(NC(=O)Nc2nnc(N3CCCC3)s2)c1,-9%,-63%
CCOc1ccccc1N(C)C(=O)C1CCCN(c2ncnc3c2nc2n3CCCCC2)C1 (centres undefined),-8%,9%
COCCCNC(=O)CSc1nc2cc3c(cc2c(=O)n1CCCC(=O)NCc1ccc2c(c1)OCO2)OCO3,-12%,-20%
COc1ccc(-n2ncc(C(=O)Nc3cccc(C(F)(F)F)c3)c2C2CCN(C(=O)OC(C)(C)C)CC2)cc1,-18%,1%
COc1ccc(Nc2ncc(C(=O)Nc3cc(C)ccc3OC)c3ccccc23)cc1,-18%,?
O=C(NCc1ccc(Cl)cc1)c1cc2c(s1)-c1ccccc1SC2,-13%,0%
CCN(CCCNC(=O)c1nn(-c2ccc(OC)cc2)c(=O)c2c1c1ccccc1n2C)c1ccccc1,-7%,?
O=C(Cn1ncn2nc(-c3cccs3)cc2c1=O)NCc1ccccc1Cl,-13%,9%
COc1cc2c(cc1OC)C(COc1ccccc1OC)N(C(=O)CC(C)C)CC2 (centres undefined),-21%,2%
Cc1ccc(-c2noc(-c3ccc(N4CCCC4)c([N+](=O)[O-])c3)n2)cc1,?,-2%
CCOc1ccc(NC(=O)c2ccc3nc(Cc4ccccc4)oc3c2)cc1,-28%,?
CC(=O)c1cccc(NC(=O)CCc2c(C)nc3c(c(C)nn3-c3ccccc3)c2C)c1,-24%,-27%
CCOc1ccccc1NC(=O)CCc1c(C)nc2c(c(C)nn2-c2ccccc2)c1C,8%,-5%
COC(=O)c1ccc(Cn2cnc3nc4c(cc3c2=O)CCCC4)cc1,0%,6%
NC(=O)c1c(NC(=O)CS(=O)(=O)c2ccc(Cl)cc2)sc2c1CCCCC2,?,-34%
CN(C)S(=O)(=O)c1ccc2c(c1)N(CC(=O)NCc1ccccc1)C(=O)C1CCCCN21 (centres undefined),-8%,14%
COc1ccc(CCNC(=O)C(=O)NCC(c2cccs2)S(=O)(=O)c2ccc(C)cc2)cc1 (centres undefined),?,?
COc1ccc(OC)c(-c2nc(Nc3ccccc3C)sc2CC(=O)O)c1,-23%,-12%
O=C(NCCCc1nc2ccccc2n1Cc1c(F)cccc1Cl)C1CCCCC1,-1%,-6%
O=S(=O)(NCc1ccc(Cl)cc1)c1ccc2[nH]c3c(c2c1)CCCC3,-7%,-7%
CCn1c(SCc2ccc(F)cc2Cl)nc(=O)c2c(C(=O)OC)cc(C3CC3)nc21,?,?
COc1ccc(C(=O)NC2(C(F)(F)F)C(=O)NC(C)=C2C#N)cc1OC (centres undefined),-2%,-8%
Cc1ccc(NC(=O)c2c(NC(=O)Cc3ccccc3)sc3c2CCCC3)cc1,-20%,-4%
O=C(OCc1cc(=O)n2nc(-c3cccs3)sc2n1)c1ccc(F)cc1,0%,7%
CC(C)(C)c1ccc(C(=O)Nc2sc3c(c2C#N)CCC(C(C)(C)C)C3)cc1 (centres undefined),4%,-40%
Cc1ccc(NC(=O)CSc2nccn2-c2ccccc2)cc1,21%,-35%
COc1cccc(NC(=O)c2cc3c(=O)n(C)c4ccccc4c3n2C)c1,-3%,-2%
Cc1nnc(SCc2ccccc2Cl)c2cc3sccc3n12,28%,-1%
CCN1CCN(c2cc(C)c3cc(NC(=O)/C=C/c4ccc(C)cc4)ccc3n2)CC1,-9%,?
CC(=O)Oc1cccc(O)c1,-2%,/
CN1CCN(C(CNC(=O)C(=O)Nc2ccc(F)cc2F)c2ccc3c(c2)OCO3)CC1 (centres undefined),0%,-9%
Cc1ccc(NC(=O)CN(C)S(=O)(=O)c2ccc3c(c2)CCC(=O)N3)c(C)c1,-10%,5%
CCOc1ccc(N(CC(=O)OC)S(=O)(=O)c2ccc3c(c2)n(C)c(=O)c(=O)n3C)cc1,0%,-42%
CCc1nn(CC(=O)NCCCc2ccccc2)c(=O)c2cc3ccccc3n12,12%,-9%

# 2 compounds picked at random from those above, as already listed:
SMILES,HTT prom inh,PMP22 txn prim
CC(C)(C)c1ccc(C(=O)Nc2sc3c(c2C#N)CCC(C(C)(C)C)C3)cc1 (centres undefined),4%,-40%
Cc1ccc(NC(=O)CSc2nccn2-c2ccccc2)cc1,21%,-35%

# Given tab-delimited: 6 of the compounds above
Molecule	HTT prom inh	PMP22 txn prim
CC(=O)Oc1cccc(O)c1	-2%	/
Cc1ccc(NC(=O)CSc2nccn2-c2ccccc2)cc1	21%	-35%
Cc1ccc(NC(=O)CN(C)S(=O)(=O)c2ccc3c(c2)CCC(=O)N3)c(C)c1	-10%	5%
COc1cccc(NC(=O)c2cc3c(=O)n(C)c4ccccc4c3n2C)c1	-3%	-2%
CCc1nn(CC(=O)NCCCc2ccccc2)c(=O)c2cc3ccccc3n12	12%	-9%
CCOc1ccc(N(CC(=O)OC)S(=O)(=O)c2ccc3c(c2)n(C)c(=O)c(=O)n3C)cc1	0%	-42%

# Next records
SMILES,HTT prom inh,PMP22 txn prim
Cc1ccc(OCCSc2nc3ccc(NC(=O)c4ccc5c(c4)OCO5)cc3s2)cc1,-3%,14µM*
O=C(COc1ccccc1)Nc1ccc2nc(SCC(=O)N3CCCC3)sc2c1,5%,-34%
Cc1ccc(NC(c2nnc(-c3ccccc3)o2)c2ccccc2F)c([N+](=O)[O-])c1 (centres undefined),31%[activator],?
COC(=O)c1c(SC)nc2ccccc2c1OCc1ccc(C)cc1C,?,-10%
CC(C)c1nn2c(=O)cc(COC(=O)CNC(=O)c3ccccc3)nc2s1,-11%,9%
O=C(CCc1cn(Cc2ccc(F)cc2)c2ccccc12)NC1CCCCC1,?,-26%
CC[C@@]1(O)C(=O)OCc2c1cc1n(c2=O)Cc2cc3c(CN(C)C)c(O)ccc3nc2-1,?,/
COc1cc2cc(CNc3ccccc3)c(=O)n(CC(=O)Nc3ccccc3)c2cc1OC,-20%,?
CC(C)c1ccccc1Oc1c(C(F)(F)F)oc2c(CN3CCN(C)CC3)c(O)ccc2c1=O,-24%,-17%
Cc1noc2nc(C(=O)O)nc(N3CCCCC3)c12,-5%,9%
O=c1[nH]c2ccc(S(=O)(=O)Nc3cc(Cl)ccc3O)cc2o1,-12%,?
O=C(COCc1cc(-c2ccco2)on1)Nc1ccc(OC(F)(F)F)cc1,7%,?
CCc1ccccc1N(C)C(=O)Cn1cnc2sc(C)c(S(=O)(=O)N3CCN(c4ncccn4)CC3)c2c1=O,-12%,0%
CCOc1ccc(S(=O)(=O)Nc2cc(Cl)ccc2OC)c2cccnc12,-28%,-30%
COc1ccc(Cl)cc1NC(=O)C1CCN(S(=O)(=O)c2ccc3c(c2)CCCN3C(=O)C2CCC2)CC1,1%,11%
CCOc1ccc(CCNC(=O)c2cc(=O)[nH]c3ccc(S(=O)(=O)N4CCCCC4C)cc23)cc1OCC (centres undefined),-26%,-20%
Cc1ccc(S(=O)(=O)NCC(c2ccc(N(C)C)cc2)N2CCc3ccccc32)cc1C (centres undefined),-23%,-8%
COc1ccc(Cl)cc1NC(=O)CSc1nnc2[nH]c(=O)cc(C)n12,-9%,?
COc1ccc(-n2c(=O)c3sc4ccccc4c3n(Cc3ccccc3)c2=O)cc1,-9%,-24%
COC(=O)c1ccc(NC(=O)C(=O)NCCc2sc3nc(-c4ccc(OC)cc4)nn3c2C)cc1,-3%,7%
COc1ccc(-c2cc(-c3ccc4c(c3)NC(=O)CO4)nc3c2COc2ccc(F)cc2-3)cc1,-8%,4%
Cc1ccc(NC(=O)Cn2c(=O)n(Cc3ccco3)c(=O)c3ccccc32)cc1,-5%,-10%
CCN(Cc1ccccc1)Cc1c(O)ccc2c(=O)c(-c3ccc(Cl)cc3)coc12,-5%,-6%
COC(=O)c1ccc(NC(=O)CSc2cn(CC(=O)N3CCCCC3)c3ccccc23)cc1,-18%,?
CCOC(=O)c1cc(-c2ccc(F)cc2)n(CCC(=O)Nc2nc3ccc(OC)cc3s2)c1C,?,?
CCC(=O)Nc1c(C(=O)N2CCN(c3ccc(F)cc3)CC2)oc2ccccc12,-34%,12%
O=C(Cn1cc(S(=O)(=O)N2CCCC2)c(S(=O)(=O)N2CCCC2)c1)Nc1ccc(F)cc1,-2%,-8%
O=C1CSC2(C(=O)N(Cc3ccccc3)c3ccccc32)N1c1ccc(Cl)cc1 (centres undefined),-5%,?
CCCN(CCC)CCCNC(=O)Cn1ncc2c3ccccc3n(Cc3ccc(F)cc3)c2c1=O,-15%,?
COCCn1c(C)cc(O)c(C(c2ccc(F)cc2)N2CCN(c3ccccc3)CC2)c1=O (centres undefined),-3%,4%
O=C(NCC(c1ccc2c(c1)OCO2)N1CCOCC1)C(=O)Nc1ccc(Cl)cc1 (centres undefined),-27%,1%
